# Mtb growth: Confirmatory growth inhibition assay against Mycobacterium tuberculosis H37Rv, potency (AID 1949); most inactive calls were filed without a number and no value below 0 was filed; actives 1.6% (n = 100,000); inhibition, % at 10 µg/mL, or IC50 in µg/mL where a hit was titrated;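 active = confirmed in a dose series; inconclusive = about 50% or more but not retested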;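 note: bacteria grown 7 days with compound before Alamar blue readout; 0% = untreated bacteria and 100% = reference antibiotic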
# * marks the source's active call; other numbers are inactive results; i = inactive; u = inconclusive. Only part of the results is shown; count on the stated rates, not on these rows.
SMILES,Mtb growth
O=C(Nc1cccc(Cn2cc(Cl)cn2)c1)Nc1ccc(F)cc1F,8%
CCOC(=O)CCc1c(C)c2ccc(OCC(N)=O)c(C)c2oc1=O,i
N#Cc1cc(Sc2ccc(Br)cc2)c(-n2nnc3ccccc32)cc1C#N,2%
COc1ccccc1CN1CCN(Cc2cccnc2)CC1,i
CN(C)S(=O)(=O)c1ccc(NC(=S)NC(=O)c2ccc(Cl)cc2Cl)cc1,i
O=C(c1ccc2nc(-c3ccccc3)c(-c3ccccc3)nc2c1)N1CCc2ccccc21,10%
COC(=O)c1ccc(COC(=O)c2ccccc2OC)cc1,2.9µg/mL*
COC(=O)C1=NN(C(=O)c2ccc(Cl)cc2)C(O)(c2ccccc2)C1 (centres undefined),9%
O=C1NC(=O)C(CCc2ccncc2)(Cc2ccc3c(c2)OCO3)C(=O)N1,1%
CCN(CC)C(=O)c1cn(CCC#N)nc1-c1ccc(C)c(C)c1,2%
COc1ccc2c(=O)c(Oc3ccc(C(C)C)cc3)coc2c1,4%
O=C(CCC1CCCCC1)Nc1ccc(F)c(F)c1,i
CC(C(=O)Oc1cccc2cccnc12)N1C(=O)C2C3C=CC(C4CC34)C2C1=O (centres undefined),3.2µg/mL*
Cc1ccccc1CC(=O)c1ccc(O)c(O)c1O,i
CC(=O)OCCC12CN3CCN(CC(C3)C1=O)C2,i
CCOC(=O)c1cn(-c2ccccc2)nc1-c1cccc(Cl)c1,i
Cc1ccc(S(=O)(=O)NCC(=O)Nc2ccc(C)cc2C(=O)c2ccccc2)cc1,i
CCn1cc(C(C)NC(=O)c2cc(-c3ccccn3)nc3c(Cl)cccc23)c(C)n1 (centres undefined),i
O=C(COc1ccccc1C(=O)NC1CCCCCCC1)Nc1ccc(Cl)cc1,13%
Nc1ncnc(NCCC(c2ccccc2)c2ccccc2)c1[N+](=O)[O-],i
CCOC(=O)c1c(NC(=O)COc2ccccc2C)sc(C(=O)N2CCCC2)c1C,i
Cn1cc(C(CC(=O)O)C(=O)O)c2ccccc21 (centres undefined),i
Cc1ccc(N2C(=O)CC(NCCc3c[nH]c4ccccc34)C2=O)cc1 (centres undefined),i
CCCCOc1ccccc1NC(=O)c1ccc(Cl)cc1,u
CN(c1ccc(O)cc1)c1nc(-c2ccc(F)cc2)cs1,19%
CCC(=O)NC(=S)Nc1ccc(Cl)c(NC(=S)NC(=O)CC)c1,0%
Cc1ccccc1CNC(=O)C(=O)Nc1cccc(F)c1,i
COC(=O)c1c(NC(=O)c2ccoc2C)sc2c1CCCCC2,i
CCn1c(SCc2ccc(OC)cc2)nnc1-c1ccco1,i
O=C(Nc1cccc(Br)c1)c1ccc2nc(N3C(=O)c4ccccc4C3=O)sc2c1,i
O=C(C(Cl)Cl)N1CCC(c2ccccc2)C1 (centres undefined),20%
Cc1ccc(S(=O)(=O)CCc2nc3ccccc3n2CCC#N)cc1,i
CCOC(=O)CNC(=O)c1ccccc1,i
Cc1ccc(NS(=O)(=O)c2ccc(NC(=O)C3CC3)cc2)c(C)c1,6%
COc1ccc(N2C(=O)NC(=O)/C(=C\c3ccc(Br)cc3)C2=O)cc1,i
Cc1cc(Cl)ccc1OC(C)C(=O)Nc1ccc(S(=O)(=O)Nc2ccccn2)cc1 (centres undefined),i

# The final 3 records of the section above lead into the next:
SMILES,Mtb growth
Cc1ccc(NS(=O)(=O)c2ccc(NC(=O)C3CC3)cc2)c(C)c1,6%
COc1ccc(N2C(=O)NC(=O)/C(=C\c3ccc(Br)cc3)C2=O)cc1,i
Cc1cc(Cl)ccc1OC(C)C(=O)Nc1ccc(S(=O)(=O)Nc2ccccn2)cc1 (centres undefined),i
O=S(=O)(Nc1ccccc1Cl)c1cc(Cl)c(Cl)cc1Cl,i
COc1ccc(NS(=O)(=O)c2ccc(NC(=O)COc3ccc(C(C)C)cc3)cc2)cc1,i
CCc1ccc(OCc2cccc(C(=O)NC3CCCCC3)c2)cc1,i
CC(NC(=S)N1CCC(C(N)=O)CC1)C12CC3CC(CC(C3)C1)C2 (centres undefined),i
CC(C)(c1ccccc1)c1ccc(OCCCN2CCNCC2)cc1,u
CCc1cccc(C)c1NC(=O)CN(Cc1ccccc1)S(=O)(=O)c1ccc(OC)cc1,i
O=C(C1=C(O)C(=O)N(Cc2ccco2)C1c1ccc(OCc2ccccc2)cc1)c1cccs1 (centres undefined),i
COc1cc(OC)c(OC)cc1CNCCc1ccc(Cl)cc1,i
CCCOc1ccc(CC(=O)Nc2cc([N+](=O)[O-])ccc2C)cc1OC,1%
CCOC(=O)c1c(NC(=O)COc2ccc(Cl)cc2Cl)sc(C(=O)N(C)C)c1C,i
O=C(COc1nc(-c2cccs2)cc(C(F)(F)F)n1)NCc1ccc(F)cc1,2%
COC(=O)C1=CN(Cc2ccc(F)cc2)C=C(C(=O)OC)C1c1ccc(O)cc1,i
Cc1ccc(C)c(NC(=O)C2CCCC2)c1,i
CCc1ccccc1NC(=S)Nc1ccc(S(=O)(=O)N2CCC(C)CC2)cc1,i
CCCC(=O)N1CCN(c2ccc(NC(=O)COc3cccc4ccccc34)cc2Cl)CC1,i
COc1ccccc1NC(=S)N1CCC(C(N)=O)(N2CCCCC2)CC1,i
Cc1c(-c2ccccc2)nc2ccccc2c1C(=O)N1CCCCC1,2%
CCCC(=O)Nc1ccc(Cl)c(NC(=O)c2cccs2)c1,i
C=CCn1c(SCC(=O)Nc2ccc(OC)cc2OC)nc2sc(C)c(C)c2c1=O,i
CN(C)c1ccc(C(=O)CC2(O)C(=O)N(C)c3ccccc32)cc1 (centres undefined),i
O=C(O)c1cc(O)ccc1NC(=O)C1CCCO1 (centres undefined),i
O=C(NNc1ccc(F)cc1)Nc1ccc(Cl)c(Cl)c1,u
COc1ccccc1N(CC(=O)Nc1cccc(C(C)=O)c1)S(=O)(=O)c1ccccc1,i
CN1C(=O)C2(OCC(COc3ccc(Cl)cc3)O2)c2ccccc21 (centres undefined),7%

# Among those listed so far, these have a Cl atom:
SMILES,Mtb growth
O=C(Nc1cccc(Cn2cc(Cl)cn2)c1)Nc1ccc(F)cc1F,8%
CN(C)S(=O)(=O)c1ccc(NC(=S)NC(=O)c2ccc(Cl)cc2Cl)cc1,i
COC(=O)C1=NN(C(=O)c2ccc(Cl)cc2)C(O)(c2ccccc2)C1 (centres undefined),9%
CCOC(=O)c1cn(-c2ccccc2)nc1-c1cccc(Cl)c1,i
CCn1cc(C(C)NC(=O)c2cc(-c3ccccn3)nc3c(Cl)cccc23)c(C)n1 (centres undefined),i
O=C(COc1ccccc1C(=O)NC1CCCCCCC1)Nc1ccc(Cl)cc1,13%
CCCCOc1ccccc1NC(=O)c1ccc(Cl)cc1,u
CCC(=O)NC(=S)Nc1ccc(Cl)c(NC(=S)NC(=O)CC)c1,0%
O=C(C(Cl)Cl)N1CCC(c2ccccc2)C1 (centres undefined),20%
Cc1cc(Cl)ccc1OC(C)C(=O)Nc1ccc(S(=O)(=O)Nc2ccccn2)cc1 (centres undefined),i
O=S(=O)(Nc1ccccc1Cl)c1cc(Cl)c(Cl)cc1Cl,i
COc1cc(OC)c(OC)cc1CNCCc1ccc(Cl)cc1,i
CCOC(=O)c1c(NC(=O)COc2ccc(Cl)cc2Cl)sc(C(=O)N(C)C)c1C,i
CCCC(=O)N1CCN(c2ccc(NC(=O)COc3cccc4ccccc34)cc2Cl)CC1,i
CCCC(=O)Nc1ccc(Cl)c(NC(=O)c2cccs2)c1,i
O=C(NNc1ccc(F)cc1)Nc1ccc(Cl)c(Cl)c1,u
CN1C(=O)C2(OCC(COc3ccc(Cl)cc3)O2)c2ccccc21 (centres undefined),7%

# Next section
SMILES,Mtb growth
CCCCC(=O)Nc1ccc(NC(=S)NC(=O)c2ccc(F)cc2)cc1OC,i
COC(=O)c1cc(NC(=O)c2cc(-c3ccc(C)o3)nc3ccccc23)cc(C(=O)OC)c1,i
O=S(=O)(NCc1ccco1)N1CCCCCC1,i
CCCC(=O)Nc1ccccc1NC(=O)c1ccc(C(C)(C)C)cc1,i
CCCOc1ccccc1-c1nc(SCC(=O)OCC)n[nH]1,1.9µg/mL*
COc1cc(OC)cc(C(=O)N2CCN(Cc3cccc(Br)c3)CC2)c1,i
Cc1ccc(NC(=O)CNS(=O)(=O)c2c(C)cc(C)cc2C)c(C)c1,6%
NC(=O)c1ccccc1NC(=O)CN(c1cccc(Br)c1)S(=O)(=O)c1ccccc1,2%
CCOC(=O)C1=C(C)NC(=S)NC1c1ccc(C(F)(F)F)cc1 (centres undefined),i
Cc1ccc(CSc2nc(C)c3c(n2)CCCC3)cc1,32%
Cc1ncc([N+](=O)[O-])n1CC(=O)Nc1ccc2c(c1)OCCO2,i
Cc1ccc(OCC(=O)Nc2ccc(C)cc2Br)c(C)c1,i
Cc1ccc(C)c(NC(=O)C2CCN(C(=O)c3ccc(F)cc3)CC2)c1,i
Cc1cccc(OCC(=O)Nc2ccc(S(=O)(=O)N3CCCC3)cc2)c1,i
CCC(C)c1ccccc1OCCNCCCOC (centres undefined),i
O=C(Nc1ccc(S(=O)(=O)N2CCOCC2)cc1)c1ccco1,i
O=C(O)c1cc(NS(=O)(=O)c2ccc(F)cc2)ccc1O,i
COc1ccc(CCNC(=O)Cn2cnc3scc(-c4ccccc4)c3c2=O)cc1OC,i
OC1/C(=C/c2ccccc2Br)N2CCC1CC2 (centres undefined),i
Cc1ccc(S(=O)(=O)Nc2cc(C)nn2-c2ccccc2)cc1,7%
O=C(Nc1ccc(F)c(Cl)c1)c1csc2c1CCCC2,2%
COc1ccc2oc(-c3cccc(N)c3)nc2c1,34%
O=C(NC(=S)Nc1cccc(NC(=O)c2ccco2)c1)c1ccc2ccccc2c1,i
O=C(Oc1ccc(Br)cc1Cl)c1ccco1,i
Cc1ccc(NC(=S)NCCCN2CCCC2=O)c(C)c1,i
Cc1ccc(-c2cc(C(=O)NCCN3CCOCC3)c3cc(Br)ccc3n2)cc1,i
CCc1nnc(NC(=O)c2ccc(N(C)S(=O)(=O)c3ccccc3)cc2)s1,i
Cc1ccnc(SCC(=O)Nc2ccccc2C)n1,i
COc1cccc(C(=O)N2CCN(c3ccc(F)cc3)CC2)c1OC,6%
CN(c1ccc(C(=O)Nc2cccnc2)cc1)S(C)(=O)=O,2%
CCCC(=O)Nc1ccc(NC(=O)c2cccc([N+](=O)[O-])c2C)cc1,i
O=C(NCCOc1nc(N2CCOCC2)nc(N2CCOCC2)n1)Nc1ccccc1,i
COc1ccc(C2C(C#N)C(C#N)N3CCCN23)cc1 (centres undefined),4%
COCCSc1nnc(NC(=O)C2c3ccccc3Oc3ccccc32)s1,i
CCC1(C(=O)c2ccc(Cl)cc2)C2C(C)(C)OC(=O)C21C(=O)OC (centres undefined),i
OC1CCCCC1Sc1nc2ccccc2s1 (centres undefined),4%
Cc1ccc(C)c(NC2=NC3(CCCC3)N=C(N)N2)c1,i
O=C(Nc1ccccc1-c1ccccc1)c1ccccc1N(Cc1ccccc1)S(=O)(=O)c1ccccc1,5%
Cc1ccc(SCC(=O)NCc2ccccc2)cc1,i
CCOc1ccccc1NC(=S)Nc1ccc(N(CC)CC)cc1,i
Cc1cc(C(=O)NC(Cc2ccccc2)C(=O)O)c(C)o1 (centres undefined),i
Cc1ccc(OCC(=O)Oc2ccc(C)c(C)c2)cc1,i
COc1ccc(Cc2nnc(SCC(=O)Nc3ncc(C)s3)o2)cc1,i
CCCCC(=O)Nc1ccc(NC(=O)c2ccc(C)c(C)c2)cc1OC,1%
FC(F)(F)c1ccccc1NC(=S)Nc1ccc(Oc2ccccc2)cc1,30%
COc1c(C)cc(Br)cc1C(=O)Nc1ccc(C(C)C)cc1,12%
COc1cccc(OC)c1OCCN1CC(C)OC(C)C1 (centres undefined),i
O=C(NCc1ccccc1)c1ccc(COc2ccccc2Br)o1,i
COC(=O)C(CC(=O)c1ccc(Br)cc1)n1ccnc1 (centres undefined),0.7µg/mL*
O=C(NCc1ccccc1F)c1sc2ccccc2c1Cl,i
CC(C)CCC1(C)NC(=S)N(c2ccc(Cl)cc2)N1 (centres undefined),15%
O=C(Nc1cccnc1)Nc1ccc(F)c(Cl)c1,0%
COC(=O)c1ccc(C(=O)OC)c(NC(=O)C(Cl)(Cl)Cl)c1,i
COCC(=O)Nc1sc(C)c(C)c1C(=O)OC,i
CCn1c(SCC(=O)Nc2ccc(F)c(Cl)c2)nnc1C(C)Oc1ccccc1 (centres undefined),i
CCOC(=O)c1c(NC(=O)C2CC(=O)OC23CCCCC3)sc2c1CC(C)(C)OC2 (centres undefined),3%
CCOC(=O)N1CCN(C(=S)Nc2ccc(CC(=O)OC)cc2)CC1,i
O=C(C1CCCN(S(=O)(=O)c2ccc(Br)cc2)C1)N1CCc2ccccc2C1 (centres undefined),3%
COc1ccc(OC)c(NC(=O)c2cc3c(n(-c4ccc(C)cc4)c2=O)CC(C)(C)CC3=O)c1,i
CCOC(=O)c1ccc(NC(=O)C2C3C=CC(C3)C2C(=O)O)cc1 (centres undefined),27%
# Carrying on:
SMILES,Mtb growth
CCOC(=O)c1c(NC(=O)CSc2nc(-c3cccc(OC)c3)c(C#N)c(=O)[nH]2)sc2c1CCN(C)C2,i
CC(=O)OC1(C#CI)C2CC3CC(C2)CC1C3 (centres undefined),i
O=S(=O)(Nc1ccc2c(c1)OCCO2)c1c(Cl)cccc1Cl,i
CCc1cc2c(=O)c(-c3nc4ccccc4n3C)c(C)oc2c(CN2CCCCC2)c1O,i
COC(=O)c1ccc(COc2ccc(C(C)C)cc2)o1,i
CS(=O)(=O)N(CC(=O)Nc1ccc(F)c(Cl)c1)c1cccc(C(F)(F)F)c1,0%
CCNS(=O)(=O)c1ccc(NC(=S)Nc2ccc(S(N)(=O)=O)cc2)cc1,i
COc1ccc(S(=O)(=O)N(Cc2ccccc2)c2ccccc2C(=O)NC2CCCCCC2)cc1,i
Cc1cc(Br)ccc1OCC(=O)NCc1ccco1,i
O=c1/c(=C/c2ccccc2OCCOc2ccc([N+](=O)[O-])cc2)sc2nc3ccccc3n12,3%
O=C(Nc1ccc(S(=O)(=O)Nc2ccc(I)cc2)cc1)C(F)(F)F,3%
CCOC(=O)NC1(C(F)(F)F)NC(=O)N(C2CCCCC2)C1=O (centres undefined),i
O=C(Cc1ccccc1)Nc1ccc(NC(=O)CC23CC4CC(CC(C4)C2)C3)cc1,i
CN1CCN(C(=S)NC(=O)c2ccc(-c3ccccc3)cc2)CC1,1µg/mL*
Cc1cccc(Cn2c(C)nc3ccccc32)c1,0%
O=c1[nH]c(-c2cc([N+](=O)[O-])ccc2Cl)nc2sc3c(c12)CCCC3,i
